# E coli growth = E. coli growth inhibition; Escherichia coli growth, OD600, 23 h; active compounds read low; OD600 absorbance (test concentration not listed); hit rate 0.21% among 330,000; AID 1053175;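 active = OD600 absorbance below the run mean of sample wells minus 3.6 SD, in any replicate, cut at about 0.56 in these data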;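 also: stock transfer was 300 nL into about 60 µL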
# Bfl-1 A1 inh = inhibitors of the anti-apoptotic protein A1, read as caspase activation | MEF A1-2A-BIM cells, Caspase-Glo 3/7 luminescence, 3 h; percent of clofoctol response, vehicle zero | caspase activation, % (test concentration not listed) | hit rate 0.066% among 330,000;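 active = over half of replicate activation scores above 10%, or exactly half above 10 with the replicate mean above 10; inconclusive = replicate mean below 10 yet half the replicates above 10; inactive = over half of replicates below 10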;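 also: wells of about 30 µL received 50 nL stock; many hits fall short of the cut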
# HNF4A DNA FP = change in binding of human HNF4 alpha to DNA | HNF4a-FITC DNA binding, fluorescence polarization, 1 h | activity change, % at 10 µM | hit rate 0.3% among 360,000; in the data active = activity change above about 30%, passing the limit was not always enough;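 also: controls were the assay level and a saturating level of protein; the project sought stronger binding though the title names inhibitors; some compounds called inactive have numbers as strong as hits; positive values seem to mean higher polarization but the record does not say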
# B2AR ag = activates human beta-2 adrenergic receptor causing internalization | P07550 | Am2.2-beta2AR cells, FAP receptor internalization, flow cytometry; reference of the scale not given here | response, % (test concentration not listed) | hit rate 0.43% among 340,000 | AID 504454;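 active = response above a set limit, near 3 SD of response in nonfluorescent compounds, cut at about 42% in these data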;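 also: stock transfer was 100 nL into about 11 µL; a reference agonist was the positive control; negative values mostly stem from fluorescent compounds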
# UCH37 DUB inh = blocks the human deubiquitinase UCH37 | Q9Y5K5 | purified proteasome/UCH37, Ub-AMC cleavage fluorescence | inhibition, % (concentration not given with the values) | hit rate 0.33% among 330,000 | AID 588478;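 active = mean of two replicates above 20%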;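 also: 0% = compound-free wells with enzyme and 100% = wells lacking proteasome; stock transfer was 100 nL into about 20 µL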
#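 Material: human UCH37 enzyme supplied as purified proteasome complex. Measure: % inhibition of Ub-AMC cleavage fluorescence. Medium: pH 7.4 Tris-HCl (50 mM) with ovalbumin, ATP-MgCl2, DTT. Times: 30 min preincubation with enzyme, 25 min cleavage at room temperature. Detection: AMC fluorescence intensity at 355/460 nm.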
# LANA-H2B inh = blocks KSHV LANA binding to histone H2A/H2B; cell-free LANA-H2A/H2B peptide, fluorescence polarization; hit rate 0.6% among 320,000; Q9QR71; inhibition, % (concentration not given with the values); AID 2629; in the data active = inhibition mostly above about 10%, no sharp cut-off; inactive = mostly below about 6.7%;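 also: stock transfer was 7.5 nL into about 10 µL; 0% = median of vehicle wells and 100% = median of positive control wells; one replicate is shown; the record names a cut of 25% in any replicate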
# Target sequence (Q9QR71 whole entry, looked up): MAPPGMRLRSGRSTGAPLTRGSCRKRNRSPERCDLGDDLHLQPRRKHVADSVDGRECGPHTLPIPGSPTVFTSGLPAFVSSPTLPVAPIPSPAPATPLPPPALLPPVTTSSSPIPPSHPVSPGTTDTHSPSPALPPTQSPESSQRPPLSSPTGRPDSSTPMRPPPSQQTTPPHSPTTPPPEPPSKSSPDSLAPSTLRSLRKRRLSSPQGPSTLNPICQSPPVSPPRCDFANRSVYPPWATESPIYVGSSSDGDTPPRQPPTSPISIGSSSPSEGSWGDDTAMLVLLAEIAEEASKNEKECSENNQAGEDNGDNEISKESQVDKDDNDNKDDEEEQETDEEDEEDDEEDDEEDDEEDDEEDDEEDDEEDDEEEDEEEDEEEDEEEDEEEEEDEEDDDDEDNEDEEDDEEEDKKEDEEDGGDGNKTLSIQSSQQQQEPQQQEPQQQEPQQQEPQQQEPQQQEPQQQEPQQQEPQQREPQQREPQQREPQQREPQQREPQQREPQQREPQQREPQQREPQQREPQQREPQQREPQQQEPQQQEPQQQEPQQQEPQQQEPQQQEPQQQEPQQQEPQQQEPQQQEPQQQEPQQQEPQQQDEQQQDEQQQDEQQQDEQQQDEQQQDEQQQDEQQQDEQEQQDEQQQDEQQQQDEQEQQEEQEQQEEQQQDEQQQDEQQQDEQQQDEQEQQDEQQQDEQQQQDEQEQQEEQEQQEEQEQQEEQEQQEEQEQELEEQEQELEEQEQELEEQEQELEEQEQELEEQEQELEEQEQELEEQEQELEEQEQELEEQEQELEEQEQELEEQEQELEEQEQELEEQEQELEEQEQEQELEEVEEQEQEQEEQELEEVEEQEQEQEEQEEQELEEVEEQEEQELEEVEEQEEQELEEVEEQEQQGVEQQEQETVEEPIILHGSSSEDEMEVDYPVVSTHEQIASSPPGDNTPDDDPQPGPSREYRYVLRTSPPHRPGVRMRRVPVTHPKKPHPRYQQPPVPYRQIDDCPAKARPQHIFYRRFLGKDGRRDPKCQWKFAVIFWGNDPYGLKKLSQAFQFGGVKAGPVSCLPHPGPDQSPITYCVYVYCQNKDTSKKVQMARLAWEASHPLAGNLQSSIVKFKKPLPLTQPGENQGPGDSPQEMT
# Vif A3G = HIV-1 Vif–A3G interaction blockers – biochemical, TR-FRET, GST-Vif 1-94, biotin-A3G peptide, dose response retest, primary screen (AID 1117319). hit rate 0.57% among 260,000. one-dose inhibition, %; IC50 in µM for titrated hits. TR-FRET GST-Vif / biotin-A3G peptide binding; higher % means a stronger effect; test concentration not given here; strong numbers were not always called active;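 active = above the screen mean plus three standard deviations and confirmed in dose response; inconclusive = results disagree or hit not tested in dose response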;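 also: Vif residues 1-94 fused to GST binding biotinylated APOBEC3G peptide 110-148; 0% = full assay without inhibitor and 100% = GST in place of GST-Vif; retest series ran down from 100 µM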
# Numbers without * were called inactive; u = inconclusive; x = no result given; & = joins results of further samples.
SMILES,E coli growth,Bfl-1 A1 inh,HNF4A DNA FP,B2AR ag,UCH37 DUB inh,LANA-H2B inh,Vif A3G
O=C(c1ccccc1F)N1CCc2ccccc21,0.67,-0.4,2.5,5,-1.3,-1.7,x
CCOc1ccc(NCc2nnc(SCc3ccc(Cl)cc3)n2-c2ccccc2)cc1,0.76,0.7,-1.5,-10,-0.5,-2.3,15%
O=C(NCc1ccco1)C(c1ccncc1)N(CCC1=CCCCC1)C(=O)Cn1nnc2ccccc21 (stereo not given),0.74,-0.3,3.1,-2,12,0.6,8%&-4%
Cc1ccc(SCC(=O)c2sc(-c3ccccc3)nc2C)cc1,0.76,-1.4,-1.2,3,5.8,2.1,66%
COc1ccccc1N1CCN(C2CCCN(C(=O)c3oc(C)cc3C)C2)CC1 (stereo not given),0.7,-0.6,-1.6,-7,1.7,-2.6,-5%
O=C(CCSCCC(=O)NCc1ccco1)NCc1ccco1,0.72,0.1,x,x,5.9,2.5,4%
CCCCCCSc1cccc(-c2nc3cc(C)ccn3c2NC2CCCCC2)c1,x,1.0,5.9,19,x,9.6,x
Cc1ccc(C(=O)OCC(=O)c2ccc(Br)cc2)cc1S(=O)(=O)N1CCOCC1,0.68,x,-1.6,19,5.4,x,x
C[C@@H](C(=O)Nc1ccccc1N1CCOCC1)N1C(=O)C2CCCCC2C1=O (stereo not given in full),0.63,-0.4,-1.6,2,0.9,-2.0,-5%
CCCCCn1c(CN2CCN(C)CC2)nc2c1c(=O)n(C)c(=O)n2C,0.74,-0.1,-1.0,-6,-2.1,-0.6,5%
Cc1cc(NC(=O)CCC(=O)N(CC(=O)NCC2CCCO2)c2cccc(C)c2C)no1 (stereo not given),0.64,0.8,-1.7,-6,0.1,1.9,x
CC(C)NS(=O)(=O)c1ccc(CCC(=O)NCc2ccncc2)cc1,0.57,0.7,-0.6,6,2.9,3.1,-1%
COc1cc(OC)cc(-c2c(C#Cc3ccsc3)c3cc(-c4ccc(N(C)C)nc4)ccc3n2C)c1,0.74,-1.4,5.0,1,-211,1.4,x
Cc1cc(O)ccc1N/C=C(\C#N)c1nc2ccccc2o1,x,0.5,4.8,4,x,0.8,x
Cc1ccc(S(=O)(=O)N2CCC(C(=O)Nc3ccc4c(c3)COC4=O)CC2)cc1,0.7,-0.8,-2.5,1,0.7,-8.9,-5%
COc1ccc(S(=O)(=O)N2CCCC(C(=O)NCc3cccnc3)C2)cc1 (stereo not given),0.67,-0.8,0.0,-11,3.4,-2.4,x
CCC1c2ccc(C)n2CCN1C(=O)Nc1ccc(F)cc1 (stereo not given),x,-1.4,0.2,0,-1.8,-0.3,u
O=C(NC1CCCCC1)c1ccc(CNc2ccccc2)o1,0.67,0.0,10,-6,-2.7,3.5,-1%
O=C(CN(Cc1ccc2c(c1)OCO2)C(=O)CNC(=O)c1ccco1)NC1CCCCC1,0.72,u,-4.0,-14,2.1,3.0,-3%
CC1CN(CC(=O)NCc2ccccc2)CC(C)O1 (stereo not given),0.71,0.0,-1.7,0,-0.5,-1.0,x

# Entries shown so far that contain a halogen, in the order listed:
SMILES,E coli growth,Bfl-1 A1 inh,HNF4A DNA FP,B2AR ag,UCH37 DUB inh,LANA-H2B inh,Vif A3G
O=C(c1ccccc1F)N1CCc2ccccc21,0.67,-0.4,2.5,5,-1.3,-1.7,x
CCOc1ccc(NCc2nnc(SCc3ccc(Cl)cc3)n2-c2ccccc2)cc1,0.76,0.7,-1.5,-10,-0.5,-2.3,15%
Cc1ccc(C(=O)OCC(=O)c2ccc(Br)cc2)cc1S(=O)(=O)N1CCOCC1,0.68,x,-1.6,19,5.4,x,x
CCC1c2ccc(C)n2CCN1C(=O)Nc1ccc(F)cc1 (stereo not given),x,-1.4,0.2,0,-1.8,-0.3,u

# New compounds follow.
SMILES,E coli growth,Bfl-1 A1 inh,HNF4A DNA FP,B2AR ag,UCH37 DUB inh,LANA-H2B inh,Vif A3G
CCOc1ccc(/C=N/OCC(=O)Nc2cc(C)on2)cc1,x,-0.1,1.1,9,x,21*,-4%
N#Cc1c(Cl)cccc1-n1ccnc1,0.64,0.6,-0.9,-22,0.1,5.5,10%
COc1ccc(-n2nnnc2SCC(=O)NCCc2ccccc2)cc1OC,0.69,-1.3,-2.3,6,5.2,-2.1,4%
CC(C)(C)c1ccc(NC(=O)CCNC(=O)c2ccco2)cc1,0.63,-0.1,3.7,1,1.5,-3.3,x
COc1cccc(CNn2c(-c3cccc(C)c3)nc3ccccc3c2=O)c1O,0.69,0.2,-2.2,-6,3.7,2.1,3%
COc1cccc(C(=O)N2CCN(S(=O)(=O)Cc3ccccc3)CC2)c1,0.71,1.8,-1.0,-1,-0.3,1.2,1%
COc1ccc2nc(SCC(=O)Nc3c(C)cccc3C)[nH]c2c1,0.67,0.3,2.9,-11,-1.2,-3.4,-6%
OCCNc1ncnc2ccc(Br)cc12,0.73,0.4,-3.7,-1,-5.3,-3.2,-3%
Cc1cc(C(=O)OCC(=O)N2CCOCC2)c(C)n1-c1ccccc1,0.64,0.7,2.3,-6,4.5,-0.1,x
Cc1c(Cl)cccc1NC(=O)CNC(=O)Cc1n[nH]c(=O)c2ccccc12,0.69,0.3,-3.4,-1,2.7,-4.2,-2%
CCOC(=O)C1=C(C)NC(=O)NC1c1ccsc1 (stereo not given),0.72,0.4,-2.0,-7,-0.5,2.1,0%
N#C/C(C(N)=O)=C1/SC(Cc2ccc(F)cc2)C(=O)N1c1ccccc1 (stereo not given),0.68,-0.5,2.5,0,2.7,8.9,-6%
COC(=O)c1ccc(N2CCN(c3ccccc3)CC2)c(NC(=O)C2CC2)c1,0.62,0.1,0.8,5,1.8,2.3,0%
CSCCC(NC(=O)c1ccc(Cl)cc1Cl)C(=O)OCC(N)=O (stereo not given),0.69,1.0,-2.6,-3,0.6,-2.2,14%
CC(=O)c1c(C)[nH]c(C(=O)Nc2nc(-c3ccccc3)c(C)s2)c1C,0.7,0.1,2.5,-3,-84,1.2,x
Cc1sc2ncnc(SCC(=O)NC(C)C(C)C)c2c1C (stereo not given),0.65,0.0,-1.6,-10,-1.4,-3.6,u
Cc1ccc(OCCN(C)C(=O)C2CCC(=O)N(CCCN3CCOCC3)C2)cc1 (stereo not given),0.66,0.3,1.5,-5,0.5,-0.6,x
O=C(Cc1ccccc1)Nc1ccc2c(c1)OC1(CCCC1)O2,0.66,-5.0,-2.6,-1,2.8,0.3,-14%
Cc1ccc(-n2nnnc2Sc2nc([N+](=O)[O-])nn2C)cc1,0.72,-0.2,2.1,-9,2.8,-1.0,x
C/C(N)=C(/C#N)C(=O)COC(=O)c1ccc(NC(N)=O)cc1,0.63,0.7,-0.7,-16,3.3,-4.6,8%
COc1cc(NC(=O)NCC2CCN(Cc3ccc(C)cc3)CC2)cc(OC)c1OC,0.67,-0.4,6.3,4,6.0,2.1,-3%
COC(=O)c1ccc(CSc2nnc(NC(=O)C3CC(=O)N(c4ccc5c(c4)OCCO5)C3)s2)cc1 (stereo not given),0.72,-0.1,4.2,10,1.4,-2.4,16%
CN(C)c1ccc(C=NCCC2(O)CCOC(C)(C)C2)cc1 (stereo not given),0.68,-0.3,0.2,-1,16,2.1,24%
CC1(C)SCC2C(=O)N3C(CSC3(C)C)C(=O)N21 (stereo not given),0.73,0.8,4.0,2,2.7,3.4,3%
NC(=S)N/N=C/c1c(O)c(Br)cc2oc3c(c12)CCCC3,x,0.3,4.4,5,x,-4.6,19%
O=c1c2ccccc2oc2nc(-c3cccs3)n(CCc3ccccc3)c(=O)c12,0.72,0.0,x,x,1.4,1.5,8%
Nc1nnc(-c2cccnc2)s1,0.66,1.0,1.6,-4,0.2,10,28%
COC(=O)c1ccc(CSc2nnc(-c3ccncc3)o2)o1,0.71,0.9,0.5,16,1.4,-2.9,6%
Cc1cccc(C)c1NC(=O)CSc1nnc(-c2ccco2)c(-c2ccco2)n1,x,-1.7,-60,-12,x,6.4,2µM*
O=C(COC(=O)Cc1ccccc1F)Nc1ccc2[nH]c(=O)[nH]c2c1,0.69,1.5,-1.3,-1,1.1,-6.4,-5%
N#CCSc1nnc(-c2cccnc2)n1-c1ccccc1,0.7,1.7,-2.5,9,3.1,3.8,3%
N=c1cc(C2(O)CCCCC2)n2c(nc3ccccc32)s1,0.71,-3.2,-1.3,1,1.5,-1.6,-3%
O=C(COC(=O)Cc1cn2ccsc2n1)Nc1nc2ccccc2s1,0.73,-0.2,4.4,-4,1.5,1.5,20%
O=C1c2ccccc2C(=O)N1CCCc1c[nH]c2ccccc12,0.69,0.0,1.1,11,0.4,3.2,x
Cc1c(C(=O)NC2CCC(C)CC2)oc2ccccc12 (stereo not given),0.72,-1.1,-1.5,-1,-0.9,-7.7,-1%
COc1ccc(-c2noc(CCC(=O)N3CCN(c4cccc(C(F)(F)F)c4)CC3)n2)cc1,0.77,1.3,1.4,-5,1.4,-4.9,0%&23%
c1ccc(CCCNCC2COc3ccccc3O2)cc1 (stereo not given),0.69,-0.3,-6.3,0,-0.5,1.3,x
O=C(COc1cccnc1[N+](=O)[O-])N1CCc2ccccc21,0.64,-0.4,4.5,-1,2.0,-5.9,u
O=C(NCc1ccc(Cl)cc1)C(=O)NCC1OCCN1C(=O)c1cccs1 (stereo not given),0.68,0.5,4.6,-7,2.4,6.6,x
CCCCCCCN1CCC(=O)N(CCO)CC1,0.82,-0.8,2.3,-10,3.7,7.7,x
O=C1OC[C@@H]2CCCN2C(=O)[C@@H](CC(=O)N(CCO)Cc2ccccc2)C/C=C\C[C@@H]1Cc1ccc(F)cc1,x,-2.2,-0.6,3,3.1,1.7,x
Cc1ccccc1NC(=S)c1nc2ccccc2[nH]1,0.67,-2.4,2.4,-1,0.7,10,x
Cc1ccc(S(=O)(=O)N(C)Cc2nc(-c3ccccn3)no2)cc1,0.7,0.3,0.2,-5,-1.7,3.7,-1%
CCC(=O)Nc1ccc(C(=O)OCc2ccc(Cl)c(Cl)c2)cc1,0.73,0.5,-4.0,-15,7.9,-0.8,7%
COc1ccc(NS(=O)(=O)c2cccc(C(=O)NCc3ccco3)c2)cc1,0.69,-0.6,-3.4,-7,0.8,1.2,4%
COc1ccc(-n2c(-c3ccc(F)cc3)cnc2SCC(=O)NCc2ccco2)cc1,0.68,1.5,2.9,2,4.0,-0.2,-4%
CC(C)(CNC(=O)C1CCCN1C(=O)c1cccs1)N1CCOCC1 (stereo not given),0.7,0.2,-2.0,4,4.4,-3.1,8%
Cc1ccc(C(=O)OC(C)C(=O)Nc2ccc(S(N)(=O)=O)cc2)cc1S(=O)(=O)N1CCOCC1 (stereo not given),0.68,-0.6,-0.1,4,2.1,x,0%
CCCCN(CC)CCNC(=O)c1ccc2c(Cl)c3c(nc2c1)CCC3,0.61,0.9,2.4,-9,3.0,-0.9,6%
O=C(CC(C(=O)N1CCc2ccccc21)n1ccnc1)NCc1ccccc1 (stereo not given),0.65,1.2,0.0,-8,-1.6,-3.2,3%
CCCC(=O)Nc1nc2c(OC)ccc(OC)c2s1,0.8,-0.3,-0.1,6,1.0,0.6,4%
COc1ccc(N(C)C(=O)c2onc3c2CCCC3)cc1,0.63,0.7,-0.5,2,0.3,-5.4,x

# Vif A3G: hit marks shown above.
mol	HNF4A DNA FP	B2AR ag	UCH37 DUB inh	LANA-H2B inh	Vif A3G
Cc1cccc(C)c1NC(=O)CSc1nnc(-c2ccco2)c(-c2ccco2)n1	-60	-12	x	6.4	2µM*

# Assay outcomes from PubChem BioAssay.
